rRNA inh HTS: reduced GFP signal of wild-type E. coli, primary screen, bacterial rRNA inhibitor project, GFP/RFP fluorescence, OD600, single point | E. coli WT GFP vs humanized-ribosome RFP mutants, 24 h; hits give low values; DMSO median 0, no signal -100 | GFP signal change (wild-type ribosome), % (no concentration beside the values) | hit rate 1.6% among 350,000 | AID 720706, 2013;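 active means significant combined selectivity score with lowered wild-type GFP, culture density cut under 30%, mutant RFP and density less affected; inactive means any of these conditions unmet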; further: one replicate is shown; some compounds called inactive have numbers as strong as hits
AF4-AF9 inh: inhibitors of AF4 peptide binding to AF9, primary screen, biochemical, AlphaScreen, biotin-AF4 peptide, FLAG-AF9, single point | inhibition, % at 10 µM | AID 651704, 2012 | Protein AF-9 (Homo sapiens), P42568 | hit rate 0.47% among 350,000;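 active means every replicate reaching a set inhibition limit, whatever the replicate mean, cut at about 25% in these data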;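 further: 0% = plate neutral control median and 100% = total signal loss; the record names both 10 and 1 µM as test concentration; the first replicate is given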
Target sequence (P42568 whole entry, looked up): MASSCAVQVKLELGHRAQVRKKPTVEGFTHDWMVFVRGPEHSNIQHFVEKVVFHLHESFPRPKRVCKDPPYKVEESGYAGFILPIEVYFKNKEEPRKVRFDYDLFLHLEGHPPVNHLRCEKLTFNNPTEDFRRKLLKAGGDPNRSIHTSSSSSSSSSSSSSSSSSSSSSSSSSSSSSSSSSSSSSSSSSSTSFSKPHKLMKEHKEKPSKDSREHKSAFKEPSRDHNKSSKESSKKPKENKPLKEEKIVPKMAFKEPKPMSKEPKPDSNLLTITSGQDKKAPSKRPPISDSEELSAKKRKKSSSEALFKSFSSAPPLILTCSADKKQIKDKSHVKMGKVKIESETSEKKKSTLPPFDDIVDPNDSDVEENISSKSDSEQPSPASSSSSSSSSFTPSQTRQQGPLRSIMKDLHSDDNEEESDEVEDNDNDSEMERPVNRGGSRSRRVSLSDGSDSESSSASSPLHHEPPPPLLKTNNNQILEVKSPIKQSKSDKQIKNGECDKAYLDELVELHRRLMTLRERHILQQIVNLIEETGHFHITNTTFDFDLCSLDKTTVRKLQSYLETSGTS
FGF22 binding: binders of human FGF22 protein, primary screen, FGF22 synaptogenesis inhibitor project, biophysical, thermal shift, single point | Fibroblast growth factor 22 (Homo sapiens), Q9HCT0 | recombinant FGF22 thermal shift, SYPRO orange fluorescence; percent of sucrose octasulfate shift, DMSO zero | calls only at 9.99 µM | hit rate 1.5% among 340,000 | AID 651658, 2012;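 active means melting point raised past a set limit in the mean and every replicate; three in four hits are not shown here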
Target sequence (Q9HCT0 whole entry, looked up): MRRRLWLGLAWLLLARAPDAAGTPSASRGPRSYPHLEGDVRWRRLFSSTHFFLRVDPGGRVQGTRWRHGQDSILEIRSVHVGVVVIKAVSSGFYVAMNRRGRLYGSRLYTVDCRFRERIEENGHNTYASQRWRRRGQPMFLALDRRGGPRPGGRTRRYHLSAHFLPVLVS
rRNA inh HTS OD600: also measured in rRNA inh HTS; calls as there; OD600 change, %; measured here: OD600 growth;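 optical density of the mix in the first replicate; 0 = DMSO median and -100 = no signal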
rRNA inh HTS RFP: also measured in rRNA inh HTS; calls as there; RFP signal change, %; measured here: RFP humanized mutant strains;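 first replicate; 0 = DMSO median and -100 = no signal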
Active calls of the source: *; i = inactive; & = joins results of further samples.

cpd | compound | rRNA inh HTS | rRNA inh HTS OD600 | rRNA inh HTS RFP
1 | CCC(=O)Nc1ccc2c(c1)OC[C@@H](C)N(C(=O)Cc1cccnc1)C[C@H](C)[C@H](OC)CN(C)C2=O | 5 | 5 | -4.3
2 | COc1cc(-c2ccc3cc(OC)c(OC)c(OC)c3c2)cc(OC)c1OC | -26 | -42 | -5.4
3 | COc1ccc(NC(=O)Nc2ccc3c(c2)CC(=O)N([C@H](C)CO)C[C@H](C)[C@H](CN(C)Cc2ccccc2)O3)cc1 | -2 | -17 | 9.8
4 | O=C(Nc1ccc2c(c1)[C@H]1C[C@@H](CC(=O)N3CCOCC3)O[C@@H](CO)[C@H]1O2)c1cccnc1 | 2 | -5 | -2.5
5 | COCC#Cc1cnc2c(c1)C(=O)N([C@@H](C)CO)C[C@@H](C)[C@H](CN(C)C(=O)C1CCOCC1)O2 | 4 | 10 | -2.2
6 | N#C[C@H]1[C@H](c2ccccc2)[C@@H](CO)N1C(=O)CN1CCOCC1 | 6 | 15 | -1.9
7 | COc1ccc(S(=O)(=O)N(C)C[C@H]2OCc3cnnn3CCCC(=O)N([C@H](C)CO)C[C@H]2C)cc1 | 2&0 | 4&-3 | -0.8&-1.0
8 | Cc1ccc(C2=N/C(=C\c3coc4ccccc4c3=O)C(=O)O2)cc1 | 11 | 8 | 3.2
9 | C[C@H](CO)N1C[C@H](C)[C@H](CN(C)C(=O)CC2CC2)Oc2cc(C#CCN(C)C)ccc2S1(=O)=O | 0 | -12 | 1.3
10 | CC1(C(=O)Nc2ccc(F)cc2F)CCN1C(=O)Cc1ccccc1Cl (centres undefined) | -9 | -7 | -3.0
11 | CC(=O)Nc1cc(-c2cccc(NS(C)(=O)=O)c2)cn2c(-c3ccc(F)c(Cl)c3)cnc12 | 2 | -16 | 24
12 | C[C@@H]1CN([C@@H](C)CO)C(=O)c2cc(-c3ccc(F)cc3)cnc2O[C@H]1CN(C)Cc1cccnc1 | 1 | 11 | -1.3

cpd | AF4-AF9 inh | FGF22 binding
1 | 2.7 | i
2 | 1.1 | i
3 | 0.1 | i
4 | -1.7 | i
5 | -2.3 | i
6 | -1.2 | i
7 | 1.1&0.0&-2.3 | i
8 | 0.4 | i
9 | 0.4 | i
10 | 1.8 | i
11 | -1.8 | i
12 | -7.1 | i

The list goes on.
cpd | compound | rRNA inh HTS | rRNA inh HTS OD600 | rRNA inh HTS RFP
13 | C[C@@H]1CN([C@@H](C)CO)C(=O)c2cc(/C=C/c3ccccc3)cnc2O[C@@H]1CN(C)C(=O)C1CCC1 | -1 | 2 | 1.1
14 | Cc1noc(C)c1S(=O)(=O)Nc1ccc2c(c1)CC(=O)N([C@@H](C)CO)C[C@@H](C)[C@@H](CN(C)C(=O)Nc1ccc(C(F)(F)F)cc1)O2 | 2 | -1 | 0.5
15 | Cc1ccc(CN2CC(N3CCN(C4CCN(C)CC4)CC3)CS2(=O)=O)cc1 (centres undefined) | 22 | 13 | 4.8
16 | O=C(COC(=O)Cc1ccc(Cl)c(Cl)c1)NCCc1ccccc1 | -49 | -46 | -14
17 | CC(C)NC(=O)Nc1cccc2c1O[C@@H](CN(C)Cc1ccc(-c3ccccc3)cc1)[C@@H](C)CN([C@@H](C)CO)C2=O | -5 | -4 | -1.2
18 | Cc1ccc(S(=O)(=O)N(C)C[C@H]2Oc3ccc(NC(=O)c4ccncc4)cc3C(=O)N([C@H](C)CO)C[C@@H]2C)cc1 | -7 | 1 | 0.2
19 | CCOC(=O)N1CCN(C(=O)C[C@@H]2C[C@@]3(C(=O)OCC)CCCC=C3N(Cc3ccc4c(c3)OCO4)C2=O)CC1 | -1 | 8 | 7.6
20 | COc1ccc(NC(=O)N(C)C[C@H]2OCCCC[C@@H](C)Oc3ccc(NS(=O)(=O)c4ccc(Cl)cc4)cc3C(=O)N([C@H](C)CO)C[C@H]2C)cc1 | 3 | 1 | -0.7
21 | C[C@@H]1CCCCO[C@H](CN(C)S(=O)(=O)c2cccs2)[C@@H](C)CN([C@@H](C)CO)C(=O)c2cc(NS(=O)(=O)c3cn(C)cn3)ccc2O1 | 0 | -1 | 1.7
22 | COc1ccc(S(=O)(=O)Nc2ccc3c(c2)CC(=O)N([C@@H](C)CO)C[C@H](C)[C@@H](CN(C)S(=O)(=O)c2c(C)noc2C)O3)cc1 | -2 | 0 | 1.4
23 | CC(=O)N(C)C[C@H]1Oc2cc(C#C[C@@H](C)O)ccc2S(=O)(=O)N([C@@H](C)CO)C[C@H]1C | 7 | 14 | -3.6
24 | C[C@@H]1CN([C@@H](C)CO)C(=O)c2cc(NC(=O)c3ccccc3)ccc2O[C@@H](C)CCCCO[C@@H]1CN(C)C(=O)CCCN(C)C | 2 | 13 | 2.5

cpd | AF4-AF9 inh | FGF22 binding
13 | 4.8 | i
14 | -1.9 | i
15 | 0.2 | i
16 | -5.1 | i
17 | 1.2 | i
18 | -0.8 | i
19 | -0.4 | i
20 | 3.9 | i
21 | -2.0 | i
22 | 1.4 | i
23 | -3.9 | i
24 | 3.3 | i

Quoted from the listing:
Reading of no. 16 under rRNA inh HTS: -49
Reading of no. 13 under AF4-AF9 inh: 4.8
Reading of no. 18 under AF4-AF9 inh: -0.8

Further entries
cpd | compound | rRNA inh HTS | rRNA inh HTS OD600 | rRNA inh HTS RFP
25 | CC(=O)N(C)C[C@H]1Oc2cc(C#Cc3ccccc3)ccc2S(=O)(=O)N([C@@H](C)CO)C[C@H]1C | -5 | -29 | 4.0
26 | CCCNC(=O)N1CCC2(CC1)CN(C(=O)CN1CCOCC1)[C@H](CO)c1[nH]c3cc(OC)ccc3c12 | 4 | 21 | -0.2
27 | C[C@@H]1CN([C@H](C)CO)S(=O)(=O)c2ccc(C#Cc3cccnc3)cc2O[C@@H]1CN(C)C(=O)C1CC1 | -4 | -6 | 1.0
28 | CCOC(=O)C1CSCCS(=O)(=O)N1Cc1ccc(F)cc1 (centres undefined) | 10 | 9 | -0.1
29 | C[C@H](CO)N1C[C@H](C)[C@H](CN(C)S(=O)(=O)c2cn(C)cn2)Oc2c(NC(=O)c3cnccn3)cccc2C1=O | -1 | 2 | -2.0
30 | O=C(Nc1ccccc1F)N1CC2(C1)[C@H](c1ccccc1)[C@@H](CO)N2C(=O)CC1CC1 | -1 | 0 | -1.7
31 | CC(C)C[C@@H](CN)NC(=O)c1nc[nH]c1C(=O)N[C@@H](C)C(=O)CNC[C@H](CC(C)C)NC(=O)c1nc[nH]c1C(=O)N[C@@H](CC(=O)O)C(=O)O | 9 | -2 | 2.7
32 | C[C@H]1CN([C@@H](C)CO)C(=O)c2cc(NC(=O)Nc3cccc4ccccc34)ccc2O[C@@H]1CN(C)S(=O)(=O)c1cccs1 | 2 | 0 | -1.4
33 | Cc1ccccc1NC(=O)COC(=O)c1ccc(C)c(S(=O)(=O)N2CCCCC2)c1 | -10 | -31 | -3.2
34 | Cc1ccc(C)c(CN2CCC(CNC(=O)C3CCCN(c4ncnc5c4nc4n5CCCCC4)C3)CC2)c1 (centres undefined) | 2 | 5 | -3.5
35 | O=C(NCc1ccc2c(c1)OCO2)OCc1ccccc1 | -18 | -14 | -2.7
36 | O=C1OCCC1=COCCOC=C1CCOC1=O | 1 | 8 | -5.2

cpd | AF4-AF9 inh | FGF22 binding
25 | 1.1 | i
26 | -1.8 | i
27 | -1.0 | i
28 | -4.6 | i
29 | -2.6 | i
30 | -1.9 | i
31 | 4.5 | i
32 | -1.0 | i
33 | -1.9 | i
34 | -0.6 | i
35 | -1.3 | i
36 | -0.2 | i

Further results:
cpd | compound | rRNA inh HTS | rRNA inh HTS OD600 | rRNA inh HTS RFP
37 | O=C(C[C@H]1CC[C@H]2[C@@H](COC[C@H](O)CN2Cc2cccc(-c3ccncc3)c2)O1)N1CCN(c2ccccc2)CC1 | -1 | 4 | 8.8
38 | Cc1noc(C)c1NC(=O)N(C)C[C@@H]1Oc2c(NC(=O)c3nc4ccccc4s3)cccc2C(=O)N([C@H](C)CO)C[C@@H]1C | -3 | -4 | 4.0
39 | C[C@@H]1CN([C@@H](C)CO)C(=O)c2cc(NC(=O)C3CCCCC3)ccc2O[C@@H]1CN(C)Cc1ccc(C(=O)O)cc1 | 0 | 6 | -0.5
40 | C#CCN(C[C@H]1[C@H](OC(=O)NC2CCCC2)[C@H](OC(=O)NC2CCCC2)C[C@@H](C(=O)OC)[C@H]1C(=O)OC)S(=O)(=O)c1ccc(C)cc1 | 5 | 2 | -2.2
41 | CNC[C@H]1OCCCC[C@H](C)Oc2ccc(NS(=O)(=O)c3cccs3)cc2C(=O)N([C@H](C)CO)C[C@@H]1C | 3 | -1 | -1.0
42 | C[C@H]1CN([C@@H](C)CO)C(=O)c2cccc(NS(=O)(=O)c3cn(C)cn3)c2O[C@@H]1CN(C)C(=O)Nc1cccc2ccccc12 | 6 | 1 | -0.5
43 | COc1ccc(CN2C[C@H](C)[C@@H](OC)CN(C)C(=O)c3cc(NC(=O)C4CC4)ccc3OC[C@@H]2C)cc1 | -1 | -6 | -0.5
44 | C[C@H]1CCCCO[C@H](CN(C)C(=O)Nc2ccc(C(F)(F)F)cc2)[C@@H](C)CN([C@@H](C)CO)C(=O)c2cc(NC(=O)C3CCCCC3)ccc2O1 | 2 | 0 | -0.7
45 | O=C(c1ccncc1)N1C[C@H]2[C@@H](c3ccccc31)[C@@H](CO)N2C(=O)c1ccccc1F | 5 | 20 | -1.8
46 | Cc1ccc(-n2ncc3c(=O)n(-c4cccc(C)c4)c(=O)[nH]c32)cc1 | -13 | -7 | -9.0
47 | C[C@H](CO)N1C[C@H](C)[C@@H](CN(C)S(=O)(=O)c2cn(C)cn2)OCCCC[C@H](C)Oc2ccc(NC(=O)c3ccccc3)cc2C1=O | 0 | 6 | -2.5
48 | COCC(O)Cn1ccnc1N=Nc1ccccc1 (centres undefined) | 2 | 13 | 1.2

cpd | AF4-AF9 inh | FGF22 binding
37 | 7.7 | i
38 | 0.0 | i
39 | -3.4 | i
40 | -1.7 | i
41 | -6.2 | i
42 | 0.9 | i
43 | -0.8 | i
44 | -4.1 | i
45 | -0.6 | i
46 | -2.1 | i
47 | -6.1 | i
48 | -3.2 | i

(list continues)
cpd | compound | rRNA inh HTS | rRNA inh HTS OD600 | rRNA inh HTS RFP
49 | CCCc1cn(CC[C@H]2CC[C@@H](NC(=O)C3CCCCC3)[C@H](CO)O2)nn1 | -4 | 2 | 2.0
50 | CCCNC(=O)Nc1ccc2c(c1)C(=O)N(C)C[C@@H](OC)[C@H](C)CN(Cc1ccc(-c3ccccn3)cc1)[C@@H](C)CO2 | 0 | -9 | 11
51 | C[C@@H]1CN([C@@H](C)CO)C(=O)c2cc(C#CCN(C)C)cnc2O[C@@H]1CN(C)Cc1cccc(F)c1 | 1 | 13 | -3.7
52 | C[C@@H]1CN([C@H](C)CO)C(=O)c2cc(NC(=O)Nc3ccc(C(F)(F)F)cc3)ccc2O[C@@H](C)CCCCO[C@H]1CN(C)Cc1ccccc1 | -14 | -21 | 26
53 | O=C(CNc1ccc(Br)cc1)Nc1ccc(S(=O)(=O)N2CCCCC2)cc1 | -4 | 0 | 2.5
54 | C[C@H](CO)N1C[C@H](C)[C@@H](CN(C)Cc2ccc3c(c2)OCO3)Oc2ccc(NS(=O)(=O)c3ccccc3)cc2CC1=O | -5 | -31 | 4.1
55 | O=C(NCc1ccc(Cl)cc1)c1ccc(-c2ccc(F)c(F)c2)c2ccoc12 | -2 | 4 | -1.0
56 | CCCCNC(=O)OC1CC2CC1[C@H]1CCCCN1C2=O (some centres undefined) | 32 | 21 | 3.6
57 | C[C@H](CO)N1C[C@H](C)[C@@H](CN(C)C(=O)Nc2ccc(C(F)(F)F)cc2)Oc2ccc(NC(=O)CCN3CCOCC3)cc2CC1=O | 1 | 1 | 0.5
58 | O=C(C[C@H]1CC[C@H]2[C@@H](COC[C@H](O)CN2Cc2cccc(Cl)c2)O1)N1CCCCC1 | -1 | 10 | 1.1
59 | O=C(NCC[C@H]1CC[C@@H](NC(=O)C2CCCCC2)[C@@H](CO)O1)c1cc(Cl)cc(Cl)c1 | -9 | -14 | 2.6
60 | C[C@H](CO)N1C[C@H](C)[C@H](CN(C)C(=O)Nc2ccc(C(F)(F)F)cc2)OCCCC[C@H](C)Oc2ccc(NS(=O)(=O)c3ccccc3)cc2C1=O | 3 | 6 | 1.4

cpd | AF4-AF9 inh | FGF22 binding
49 | 1.4 | i
50 | 6.7 | i
51 | -0.1 | i
52 | -1.5 | i
53 | 0.6 | i
54 | 12 | i
55 | -3.6 | i
56 | -1.4 | i
57 | 3.1 | i
58 | -1.1 | i
59 | -0.5 | i
60 | -15 | i

In another format: results already given
37) O=C(C[C@H]1CC[C@H]2[C@@H](COC[C@H](O)CN2Cc2cccc(-c3ccncc3)c2)O1)N1CCN(c2ccccc2)CC1
  rRNA inh HTS = -1
  rRNA inh HTS OD600 = 4
  rRNA inh HTS RFP = 8.8
  AF4-AF9 inh = 7.7
  FGF22 binding = i
38) Cc1noc(C)c1NC(=O)N(C)C[C@@H]1Oc2c(NC(=O)c3nc4ccccc4s3)cccc2C(=O)N([C@H](C)CO)C[C@@H]1C
  rRNA inh HTS = -3
  rRNA inh HTS OD600 = -4
  rRNA inh HTS RFP = 4.0
  AF4-AF9 inh = 0.0
  FGF22 binding = i

This is a subset; count on the stated rates, not on these rows.
